# Mtb H37Rv – Mycobacterium tuberculosis H37Rv growth inhibition, cell based, confirmatory dose response (AID 1949); most inactive calls were filed without a number and no value below 0 was filed; inhibition, % at 10 µg/mL; hits with a dose series show IC50 in µg/mL; actives 1.6% (n = 100,000);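 active = confirmed in a dose series; inconclusive = about 50% or more but not retested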;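 also: bacteria grown 7 days with compound before Alamar blue readout; 0% = untreated bacteria and 100% = reference antibiotic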
# * marks the source's active call; other numbers are inactive results; i = inactive; ? = inconclusive.
SMILES,Mtb H37Rv
COc1cc(C=O)c([N+](=O)[O-])cc1OCc1ccccc1,i
CCOC(=O)C(=O)Nc1ccccc1CC,i
COc1ccc(CC(=O)NC(=S)Nc2cccc(Cl)c2C)cc1,i
O=C(Cc1ccccc1)Nc1ccc2oc(-c3cccc(F)c3)nc2c1,i
CC12CN(C(=O)c3ccccc3)C3(C#N)CC1CCC23C (stereo not given),i
OC(c1ccccc1)(c1ccccc1)c1nc2ccccc2n1Cc1ccccc1,i
CC(=O)Nc1ccccc1NC(=O)CN(C)S(=O)(=O)c1ccc(Cl)cc1,i
O=C(O)c1cn(-c2ccccc2)nc1-c1cccs1,i
O=C(NCc1ccccn1)c1ccc(Cl)cc1[N+](=O)[O-],i
COc1cc(/C=C2\C(=O)NC(=O)N(c3ccc(Cl)cc3)C2=O)cc(Br)c1OCC(=O)O,i
Cc1ccc(C(=O)Nc2cccc(NC(=O)C(C)C)c2)cc1C,i
Cc1ccc(C(=O)Nc2ccccc2N2CCCCC2)cc1[N+](=O)[O-],6.2%
N#C/C(=C/c1cccn1-c1cccc(C(=O)O)c1)c1ccc(F)cc1,i
CCCCOc1ccccc1Nc1ncnc2ccccc12,i
CCOC(=O)COc1cc(C)cc2oc(=O)c3c(c12)CCCC3,i
CC(C)C(=O)NC(=S)Nc1ccc(Br)cc1,10.3%
COc1ccccc1N(CC(=O)N1CCN(c2cccc(Cl)c2)CC1)S(C)(=O)=O,i
Cn1nc(-c2ccc(OCC(=O)Nc3cccnc3)cc2)c2ccccc2c1=O,i
CCOc1cc(CNC(C)c2ccccc2)ccc1OCC(=O)NCc1ccccc1 (stereo not given),i
CCOc1ccc(NS(=O)(=O)c2ccc(NC(=O)c3ccccc3Br)cc2)cc1,i
CCOC(=O)C1=C(c2ccccc2)NC(=S)NC1c1ccc(C)c([N+](=O)[O-])c1 (stereo not given),i
Fc1ccc(COc2ccc(CNc3ccccc3)cc2Cl)cc1,2.0%
CCOC(=O)c1c(NC(=S)NC(=O)CSc2ccccc2)sc2c1CCCC2,i
O=C(NC(=S)NC1CCS(=O)(=O)C1)c1ccc(Br)cc1 (stereo not given),i
CCc1nnc(NC(=O)c2cc3c([nH]c4ccccc43)c(C)n2)s1,25.0%
CCOc1ccc(C2CC(=O)n3c(nc4ccccc43)S2)cc1OC (stereo not given),i
CC(C)Nc1ccc(S(=O)(=O)N(Cc2ccccc2)Cc2ccccc2)cn1,i
C=CCn1c(SCc2c(C)noc2C)nc2sc(C)c(C)c2c1=O,0.6%
COc1ccc(C2(C(=O)NCC3CCCO3)CCOCC2)cc1 (stereo not given),6.1%
C=CCN(CC=C)C(=O)c1cccc(NC(=O)C(C)C)c1,i
Cc1ccc(C(C)C)c(OCCCCn2ccnc2)c1,2.22µg/mL*
Cc1ccc(C(C)C)c(OCCCNCc2ccccc2)c1,46.2%
COc1ccc(C(=O)NCCc2ccc(S(N)(=O)=O)cc2)cc1[N+](=O)[O-],i
O=C(Nc1ccccc1)Nc1ccccc1C(=O)NCc1ccco1,0.2%
CCC(=O)Nc1cc(C(=O)OCc2ccc(F)cc2)ccc1C,3.2%
O=C(Nc1ccccc1C(=O)OCc1ccc(Cl)cc1)c1ccccc1,i
COCCNC(=O)Nc1ccc2c(c1)nc(C)n2C,i
CCN(CC)c1ccc(C(=O)NNC(=S)NCCc2ccccc2)cc1,i
COc1cccc(CN2CCN(C(=S)Nc3ccc(S(N)(=O)=O)cc3)CC2)c1,11.2%
Cn1c(Cc2ccccc2)nnc1SCC(=O)Nc1ccccc1Cl,i
C=CCn1c(SCC(N)=O)nnc1-c1ccccc1C,i
Cc1ccc(-c2noc(COc3ccccc3)n2)cc1,i
COc1cccc(-c2nnc(SCc3nc4ccccc4[nH]3)n2N)c1,i
Cc1cc(C(=O)NC(C)c2ccc3c(c2)OCO3)no1 (stereo not given),i
COc1cc(C2Nc3ccccc3NC3=C2C(=O)CC(c2ccc(C)cc2)C3)cc(OC)c1O (stereo not given),i
Cc1cc(NC(=O)c2cccc(NC(=O)c3ccco3)c2)no1,i
CC(C)OC(=O)C(C(=O)C(F)(F)F)c1cc(NS(=O)(=O)c2ccccc2)ccc1O (stereo not given),?
O=C(CC(=O)Nc1ccc(F)c(Cl)c1)Nc1ccc(F)c(Cl)c1,i
CC(C)OCCCNC(=O)Cc1ccc(Br)cc1,i
CCn1c(Cc2ccccc2)nnc1SCC(=O)c1ccccc1,i
CCc1ccc(C(=O)Nc2cc(C)ccc2F)s1,i
O=C(c1ccc2c(=O)n(-c3ccccc3)c(=O)[nH]c2c1)N1CCOCC1,i
O=C(NCCCCc1ccccc1)C1CCCC1,i
N#Cc1ccccc1NC(=O)c1ccco1,i
O=C(CSc1nnc(CCCOc2ccc(Cl)cc2Cl)o1)Nc1ccc(F)c(Cl)c1,1.8%
Cc1ccc(NC(=O)CSc2nc(C)c(C)c(=O)[nH]2)cc1,9.4%
CCC(C)C(=O)Nc1ccc(C(C)=O)cc1 (stereo not given),i
CCOc1ccc(C(=O)Nc2ccc(Cc3ccncc3)cc2)cc1[N+](=O)[O-],i
O=C(NCc1ccco1)C1CCN(S(=O)(=O)c2cc(Cl)ccc2Cl)CC1,i
O=C(NNC(=O)c1ccc(NC(=O)c2ccccc2)cc1)Nc1ccccc1,i

# (next part)
SMILES,Mtb H37Rv
COc1ccc(S(=O)(=O)N(Cc2ccccc2)Cc2ccccc2)cn1,i
CCS(=O)(=O)N1CCN(C(=O)c2ccccc2Cl)CC1,i
Cc1cccc(C2CC(c3ccccc3)Nc3nc(N)nn32)c1 (stereo not given),i
CCCC1CCc2c(sc(NC(=O)c3ccc([N+](=O)[O-])c(C)c3)c2C(N)=O)C1 (stereo not given),i
O=C(CSCc1ccc(Br)cc1)Nc1ccccc1C(=O)N1CCCC1,i
Brc1ccc(NCc2cccc3ccccc23)nc1,18.3%
COc1cc(Br)cc2cc(C(=O)Nc3cccc(C(F)(F)F)c3)c(=O)oc12,0.11µg/mL*
CS(=O)(=O)N(Cc1ccccc1)c1ccc(C(=O)N2CCN(c3cccc(Cl)c3)CC2)cc1,48.4%
C=C(C)C1Cc2cc3ccc(=O)oc3cc2O1 (stereo not given),i
C=CCN1C(=O)C(O)(CC(=O)c2cccc3ccccc23)c2ccccc21 (stereo not given),36.0%
CCCCc1ccc(S(=O)(=O)Nc2nnc(C)s2)cc1,i
O=C(Nc1ncnc2sc3c(c12)CCC3)c1cccs1,2.1%
Cc1ccc(NC2CC(O)C(CO)O2)cc1C (stereo not given),i
Fc1cccc(COc2ccc(C(=S)N3CCCC3)cc2)c1,1.7%
CCOC(=O)C(=CNc1ccccc1C(=O)O)C(=O)OCC,i
Cc1ccc(S(=O)(=O)N2CCC(C(=O)NCC3CCCO3)CC2)cc1 (stereo not given),i
O=C(O)C1CC=C(Cl)CC1C(=O)Nc1cncs1 (stereo not given),i
O=C(NCc1ccco1)C1C(c2ccccc2)C1(Cl)Cl (stereo not given),i
COc1ccccc1/C=C(/C#N)c1cccc(C#N)c1,4.4%
CCOC(=O)N1CCN(C(=S)Nc2cccc(F)c2)CC1,i
COc1ccc(CNC(=O)COc2ccc(S(=O)(=O)N3CCc4ccccc43)cc2Cl)cc1,i
CC(=O)Nc1ccc(NS(=O)(=O)c2ccc(F)c(C)c2)cc1,i
Nc1cc(N)nc(SCC(=O)Nc2ccccn2)n1,i
S=c1[nH]nc(-c2cccnc2)n1-c1ccc(Oc2ccccc2)cc1,i
COc1ccccc1NC(=S)N1CCN(C(=O)c2ccco2)CC1,i
COC(=O)CCn1[nH]c(=O)c2ccccc2c1=O,i
COc1ccc(-c2oc3ncnc(N)c3c2-c2ccccc2)cc1,i
Cc1ccccc1CNS(=O)(=O)c1ccc(Br)cc1,11.9%
O=C(CSc1ncn[nH]1)NCc1ccccc1,i
O=C(Nc1ccc(Br)cc1)c1ccc(COc2ccccc2)o1,i
Cc1cccc(C(=O)NCCc2ccc(S(N)(=O)=O)cc2)c1[N+](=O)[O-],0.9%
Cc1ccc(S(=O)(=O)N(C)CC(=O)N2CCOCC2)cc1,i
COc1ccc(N2CCN(C(=S)Nc3ccc(Cl)cc3C)CC2)cc1,0.6%
CCOC(=O)c1cc(Cc2ccccc2)sc1NC(=S)NNC(=O)OC(C)(C)C,i
O=C(Nc1ccc2oc(-c3cc(Cl)ccc3Cl)nc2c1)c1ccccc1F,i
CCCc1cc(=O)[nH]c(SCC(=O)Nc2nc3ccc([N+](=O)[O-])cc3s2)n1,i
CCOc1ccc(C(NC(=O)c2ccco2)c2ccc(OC)cc2)cc1 (stereo not given),i
Cc1ccc2oc(-c3cc(NC(=O)c4ccco4)ccc3Cl)nc2c1,i
CCOC(=O)c1c(NC(=O)CCC(=O)N2CCCCC2)sc2c1CC(C)(C)OC2,i
O=S(=O)(Nc1nonc1NS(=O)(=O)c1ccc(F)cc1)c1ccc(F)cc1,i

# Overlap with the part before: four compounds, then new ones.
SMILES,Mtb H37Rv
CCOc1ccc(C(NC(=O)c2ccco2)c2ccc(OC)cc2)cc1 (stereo not given),i
Cc1ccc2oc(-c3cc(NC(=O)c4ccco4)ccc3Cl)nc2c1,i
CCOC(=O)c1c(NC(=O)CCC(=O)N2CCCCC2)sc2c1CC(C)(C)OC2,i
O=S(=O)(Nc1nonc1NS(=O)(=O)c1ccc(F)cc1)c1ccc(F)cc1,i
CCOC(=O)C1CCN(C(=O)CN(Cc2ccccc2)S(=O)(=O)c2c(C)cc(C)cc2C)CC1,i
CN1Cc2cc(Br)ccc2NC1=O,i
COc1ccccc1C(=O)Nc1ccc2c3c(cccc13)CC2,i
Nc1ncnc2c1ncn2CCNCCc1ccccc1,i
CCOc1nc(C)ccc1-c1noc(-c2ccco2)n1,i
COc1ccc(NC(=O)Cc2ccc(OC)c(OC)c2)c(OC)c1,i
Cc1cccc(C)c1OCc1nnc(SCC(=O)Nc2ccc(Br)cc2)o1,i
Cc1onc(-c2ccccc2Cl)c1C(=O)NC(=S)Nc1ccccc1C(N)=O,4.3%
O=C(CN(Cc1ccc(Cl)cc1)S(=O)(=O)c1ccccc1)Nc1cc(Cl)ccc1Cl,i
Cc1ccc(N2C(=O)Cn3c2nc2c3c(=O)n(C)c(=O)n2C)cc1Cl,i
COc1ccccc1CC(=O)Nc1cc(C)c(Cl)cc1OC,0.3%
CCOc1ccc(C(=O)N2CCCC(C)C2)cc1 (stereo not given),i
N#C/C(=C/c1ccc(Br)o1)c1ccc2c(c1)OCO2,i
O=C(CSCc1c(Cl)cccc1Cl)NCCC1=CCCCC1,8.3%
Cc1ccc2[nH]c(O)c(N=NC(=O)COc3cccc(Br)c3)c2c1,i
COc1cc(C(=O)Nc2ccc(F)c(Cl)c2)c(Br)c(OC)c1OC,i
O=C(CCc1ccccc1)NC(c1cccs1)c1cc(Cl)c2cccnc2c1O (stereo not given),i
Cc1ccc(Cl)cc1N1CCN(CC(O)COc2ccc(Cl)cc2)CC1 (stereo not given),4.57µg/mL*
COC(=O)C1=C(C)NC2=C(C(=O)CCC2)C1c1cc([N+](=O)[O-])ccc1Cl (stereo not given),i
COC(=O)c1cn(CC(=O)NCc2ccccc2)c2ccccc12,i
CCOc1ccc(NS(=O)(=O)c2ccc(NC(=O)CC)cc2)cc1,i
COc1ccc(-n2c(SCC(=O)N3CCOCC3)nc3sc4c(c3c2=O)CCC4)cc1,i
COc1ccc(C)cc1NC(=O)NCCC1=CCCCC1,2.7%
O=S(=O)(Nc1ccccc1Oc1ccccc1)c1ccc(F)cc1,i
CCCOc1ccc(C(=O)N(Cc2cccs2)C2CCS(=O)(=O)C2)cc1 (stereo not given),2.2%
C=CCNC(=S)Nc1ccc(OC(F)F)cc1C,i
COc1ccc(-n2nc3ccc(NC(=S)NC(=O)c4ccccc4)cc3n2)cc1,i
CC(C)OC(=O)c1cc(NC(=S)NCc2ccco2)cc(C(=O)OC(C)C)c1,i
O=C(Nc1ccc(I)cc1)C1CCN(C(=O)c2ccc(F)cc2)CC1,i
COCCNC(=S)N1CCc2ccccc21,i
CCCN1C(=O)c2ccc(C(=O)Nc3ccc(C(C)=O)cc3)cc2C1=O,i
O=[N+]([O-])c1ccc(N2CCN(C(=S)Nc3ccccc3)CC2)cc1,0.8%
COc1ccc(OC)c(NC(=S)NC(=O)COc2ccccc2)c1,i
Cc1cc(Cl)ccc1OC(C)C(=O)Nc1nncs1 (stereo not given),i
O=S(=O)(Nc1ccc(Br)cc1F)c1cccs1,i
COc1ccc(N(C(C)C(=O)Nc2cccc(C)c2C)S(C)(=O)=O)cc1 (stereo not given),i
O=C(O)c1cccc(NC(=S)NC(=O)c2cccc(Cl)c2)c1,i
CCOc1cccc(C(=O)NC(=S)Nc2ccc(I)cn2)c1,i
O=C(c1cccs1)N1C(=O)c2cccc3c(S(=O)(=O)N4CCCC4)ccc1c23,5.1%
COc1ccc(Br)cc1C(=O)NC(=S)Nc1ccccc1N1CCCC1,36.4%
CCOC(=O)c1ccc(NC(=S)NC(C)c2cc(OC)ccc2OC)cc1 (stereo not given),i

# A draw from above in order of heavy-atom count, low to high:
SMILES,Mtb H37Rv
COCCNC(=S)N1CCc2ccccc21,i
O=S(=O)(Nc1ccc(Br)cc1F)c1cccs1,i
C=CCNC(=S)Nc1ccc(OC(F)F)cc1C,i
Cc1cc(Cl)ccc1OC(C)C(=O)Nc1nncs1 (stereo not given),i
COc1ccc(C)cc1NC(=O)NCCC1=CCCCC1,2.7%
O=C(O)c1cccc(NC(=S)NC(=O)c2cccc(Cl)c2)c1,i
O=[N+]([O-])c1ccc(N2CCN(C(=S)Nc3ccccc3)CC2)cc1,0.8%
O=C(Nc1ccc(I)cc1)C1CCN(C(=O)c2ccc(F)cc2)CC1,i
CCCN1C(=O)c2ccc(C(=O)Nc3ccc(C(C)=O)cc3)cc2C1=O,i
CCOC(=O)c1ccc(NC(=S)NC(C)c2cc(OC)ccc2OC)cc1 (stereo not given),i
O=C(c1cccs1)N1C(=O)c2cccc3c(S(=O)(=O)N4CCCC4)ccc1c23,5.1%
COc1ccc(-n2nc3ccc(NC(=S)NC(=O)c4ccccc4)cc3n2)cc1,i
COc1ccc(-n2c(SCC(=O)N3CCOCC3)nc3sc4c(c3c2=O)CCC4)cc1,i

# This is a subset; count on the stated rates, not on these rows.
